High-throughput results as filed in PubChem BioAssay.
LASV entry inh = qHTS for Inhibitors of binding or entry into cells for Lassa Virus | Lassa virus pseudotype entry inhibition, cell reporter; control for the full effect not named in the record | Potency, µM (highest dose often 37.9 µM), inactives show top-dose activity change, negative = inhibition, most hits filed as inhibitors | 1.2% of 300,000 active; active means well fitted inhibition curve with a large enough effect; inconclusive means small, poorly fitted or top-dose-only effect, or effect the other way; inactive means flat fitted curve, though single readings scatter; tested in HEK293 cells; note: % is set by controls: 0 for no effect and ±100 for the full control effect; nearly all actives have a fitted effect of over 50% in size; luciferase read-out
StopGo reporter = High Throughput Screening for Foot and Mouth Disease Virus Antivirals; human cells with a luciferase reporter of 2A StopGo recoding; control for the full effect not named in the record; Potency, µM (titrated, usually from 57.9 µM), without a hit: at the highest dose signal change, negative = less light; 1.2% of 410,000 active; AID 1159524, 2015; active = well fitted falling curve with a large enough effect; inconclusive = small, poorly fitted or top-dose-only effect; inactive = no such curve, though single readings can be large or run the other way; tested in HEK293T cells; note: % is set by controls: 0 for no effect and ±100 for the full control effect; nearly all actives have a fitted effect of over 45% in size; luciferase light after 4 h
RE007 growth inh = qHTS Assay for Inhibitors of the HIV-1 protein Vpr | 0.21% of 360,000 active | AID 651644, 2012 | S. pombe RE007 Vpr strain, BacTiter-Glo ATP luminescence, 24 h; control for the full effect not named in the record | Potency, µM (highest dose often 92.2 µM), for the others: at the top dose activity change, negative = less growth; active = well fitted falling curve with a large enough effect; inconclusive = small, poorly fitted or top-dose-only effect; inactive = no such curve, though single readings can be large or run the other way;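 note: % is set by controls: 0 for no effect and ±100 for the full control effect; nearly all actives have a fitted effect of over 50% in size; the assay follows cell death caused by Vpr and the record does not say whether a fall means rescue or toxicity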
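Fission yeast strain RE007, carrying one chromosomally integrated HIV-1 vpr copy, was seeded at OD 0.01 in PMG+AL medium with 23 nL pinned compound. After 24 h at 30 °C and 99% humidity, viability was read by BacTiter-Glo luminescence.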
NS1 function inh = qHTS Assay for Inhibitors of Influenza NS1 Protein Function. AID 2326, 2010. Potency, µM (highest dose often 46.1 µM), for the others: at the highest dose activity, positive = more growth. S. cerevisiae slowed by influenza A NS1, growth recovery by OD600. 0.4% of 270,000 active; active means well fitted rising curve with a large enough effect; inconclusive means small, poorly fitted or top-dose-only effect; inactive means no such curve, though single readings can be large or run the other way; note: nearly all actives have a fitted effect of over 50% in size
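Recovery from NS1-induced slow growth read by OD600 in budding yeast switched to galactose assay medium (pH 6.0, -URA) at 1:100 dilution. Compound 23 nl per well; the matching strain lacking NS1 serves as control.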
MARV entry inh = qHTS for inhibitors of binding or entry into cells for Marburg Virus; Marburg virus pseudotyped entry inhibition, cell reporter; control for the full effect not named in the record; about a third of the inactives were read at about 46 µM; Potency, µM (doses to about 37.8 µM), for inactives: at the top dose activity change, negative = inhibition, usual class: inhibitors; 1.8% of 300,000 active; active = well fitted inhibition curve with a large enough effect; inconclusive = small, poorly fitted or top-dose-only effect, or effect the other way; inactive = flat fitted curve, though single readings scatter; tested in HEK293 cells; about a fifth of its hits are not listed in these tables; note: % is set by controls: 0 for no effect and ±100 for the full control effect; luciferase read-out
Cruzain Triton = qHTS Assay for Promiscuous and Specific Inhibitors of Cruzain (with detergent); Cruzipain (Trypanosoma cruzi), P25779; Potency, µM, for inactives: max response, negative = inhibition, hits mostly inhibitors; purified cruzain, Z-FR-AMC fluorescence, 0.01% Triton; AID 1478, 2009; 0.43% of 200,000 active;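 note: plate controls were neutral wells for no effect and buffer without enzyme for full effect; nearly all actives have a fitted effect of over 40% in size; top concentration of the series not given in the record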
Target sequence (P25779 123-467 limits assumed): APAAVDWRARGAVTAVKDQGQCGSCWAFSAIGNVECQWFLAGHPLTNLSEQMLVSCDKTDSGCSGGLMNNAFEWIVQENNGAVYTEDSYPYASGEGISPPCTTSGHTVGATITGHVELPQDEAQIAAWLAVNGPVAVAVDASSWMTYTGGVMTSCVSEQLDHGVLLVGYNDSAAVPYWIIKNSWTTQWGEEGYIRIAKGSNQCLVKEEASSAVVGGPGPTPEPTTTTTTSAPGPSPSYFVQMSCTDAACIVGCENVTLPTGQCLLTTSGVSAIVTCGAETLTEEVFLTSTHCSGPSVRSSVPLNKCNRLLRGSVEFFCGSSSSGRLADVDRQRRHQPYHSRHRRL
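Cruzain (1.5 nM) preincubated 15 min at RT with compound in 100 mM sodium acetate pH 5.5, 5 mM DTT, 0.01% Triton X-100. Reaction started with 2 uM Z-FR-AMC; AMC fluorescence (ex 360/em 450 nm) change over 60 s gave rate.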
SARS PLP yeast = qHTS of Yeast-based Assay for SARS-CoV PLP; S. cerevisiae expressing SARS-CoV PLpro, growth rescue; control for the full effect not named in the record; Potency, µM (doses to about 32.9 µM), without a hit: at the highest dose activity, positive = growth rescue; 0.19% of 330,000 active; AID 485353, 2010; active means well fitted rising curve with a large enough effect; inconclusive means small, poorly fitted or top-dose-only effect; inactive means no such curve, though single readings can be large or run the other way; note: 0% is about no effect; nearly all actives have a fitted effect of over 55% in size; growth read by luminescence after 48 h
Cruzain inh noDet = qHTS Assay for Promiscuous and Specific Inhibitors of Cruzain (without detergent). AID 1476, 2009. 2.3% of 200,000 active. purified cruzain, Z-FR-AMC fluorescence, no detergent. Potency, µM, for the others: max response, negative = inhibition, usual class: inhibitors. Cruzipain (Trypanosoma cruzi), P25779;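 note: plate controls were enzyme without inhibitor for no effect and buffer without enzyme for full effect; nearly all actives have a fitted effect of over 40% in size; top concentration of the series not given in the record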
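Purified cruzain at 1.5 nM, pre-incubated 15 min with compound at room temperature in 100 mM sodium acetate pH 5.5, 5 mM DTT, 0.00005% Triton X-100. Reaction started with 2 uM Z-FR-AMC; AMC fluorescence increase over 60 s gives rate.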
The depositor's hits bear a star; ? = inconclusive; . = not tested or not shown; [ ] = remark or other dose. Unless noted, calls come from the whole dose curve; as a rule, active = well fitted curve in the direction sought with a large enough effect; inconclusive = small, poorly fitted or top-dose-only effect, or another doubt; inactive = no such curve, though single readings can be large; an effect the other way counts as inactive or inconclusive. Potency is the fitted concentration of half-maximal effect. Rows were taken by chance. Share with any hit: about 4.7%.

Molecule | LASV entry inh | StopGo reporter | RE007 growth inh | NS1 function inh | MARV entry inh | Cruzain Triton | SARS PLP yeast | Cruzain inh noDet
c1ccc(SCCN2CCc3ccccc3C2)cc1 | 12% | 1% | -16% | 3% | 11% | 1.6% | -33% | -3%
Cc1ccc(NC(=O)c2cccc(N3C(=O)C4C5CCC(C5)C4C3=O)c2)c(C)c1 (stereo not drawn) | -1% | -7% | 1% | -8% | ? | 1.9% | 10% | 12%
O=C(Nc1ccc2oc(-c3ccccc3F)nc2c1)c1ccc([N+](=O)[O-])o1 | . | -9% | 3% | 3% | . | . | -2% | .
COc1ccc(NC(=O)Nc2ccccc2SC)cc1OC | . | 61%[activator] | -22% | 6% | . | . | 0% | .
Oc1c(C(c2ccco2)N2CCN(C(c3ccccc3)c3ccccc3)CC2)sc2ncnn12 (stereo not drawn) | . | -28% | -6% | -37% | 4% | -17% | -4% | 30%
CC1(C)CC(=O)C(C(=S)Nc2ccccc2)=C(NCCN2CCOCC2)C1 | 1% | -10% | -4%[3.69 µM] | 14% | 4% | -2.8% | 3% | -9%
C#CCOc1c(Br)cc(/C=N\NC(=O)CN2CCOCC2)cc1OCC | 4% | -20% | 11% | 2% | -15% | 1.0% | -6% | -7%
CN=c1scc(-c2ccc(OC)cc2)n1/N=C(\C)c1cccnc1 | -42% | ? | 1% | . | ? | . | -15% | .
CCCN(C(=O)CSCc1ccc(Cl)cc1)c1c(N)n(Cc2ccccc2)c(=O)[nH]c1=O | -7% | -20% | 13% | . | ? | . | 1% | .
COC(=O)c1[nH]c2c(c1C)C(=O)CC(c1ccccc1)C2 (stereo not drawn) | ? | . | 8% | -11% | ? | 1.4% | ? | ?
Cc1ccc(C)c(OCC(=O)N/N=C/c2c(C)nn(-c3ccccc3)c2Cl)c1 | . | . | . | -10% | 6% | -3.4% | -5% | 9%
CCOc1cc(CNC(C)C(O)c2ccccc2)cc(Cl)c1OCC (stereo not drawn) | ? | ? | 6% | 6% | ? | -0.5% | 3% | 1%
O=C(O)c1cccc(N2C(=O)CSC2=S)c1 | 13%[46.1 µM] | ? | 20% | 1% | ? | . | -1% | .
CCC(Oc1ccc(F)cc1)C(=O)Nc1nc(-c2ccc(F)cc2)ns1 (stereo not drawn) | ? | -19% | . | . | ? | -7.5% | . | 5%
CCOC(=O)CNC(=O)CSc1nccn1Cc1ccco1 | 15% | -9% | 18% | 3% | -20% | . | 0% | .
O=C(NCCOc1cccc(Cl)c1Cl)c1cc(-n2cnnc2)ccc1Cl | 12% | -20% | 7% | 8% | ? | 1.1% | -10% | 7%
COc1ccc(-n2c(SCC(=O)NCC3CCCO3)nc3c(c2=O)SC(C)C3)cc1 (stereo not drawn) | 23% | -12% | 13% | 9% | -3% | . | 0% | .
CC(CCCC(C)(C)O)NC(=O)c1ccc(OC2CCN(C(=O)C3CC3)CC2)cc1 (stereo not drawn) | ? | -12% | 12% | 1% | -16%[46.1 µM] | . | 1% | .
CCOC(=O)C1=C(N)OC2=C(C(=O)CCC2)C1c1ccc2c(c1)OCO2 (stereo not drawn) | 27% | 22% | 2% | . | 14%[46.1 µM] | . | . | .
CC(=O)Nc1ccc(N=Cc2nc(-c3ccc(C)cc3)oc2O)cc1 | -13% | -1% | 2% | ? | -6% | -1.3% | 8% | 18%
CN(C)CCCN(CCCN(C)C)C(=S)Nc1ccc(S(=O)(=O)N2CCOCC2)cc1 | . | -5% | 5% | 0% | . | . | 0% | .
Nc1[nH]c(=O)nc2snnc12 | -2%[46.1 µM] | -5% | 11% | . | 19% | . | . | .
COc1cccc(C(=O)/C=C2\NCCc3cc(OC)c(OC)cc32)c1 | -27% | 0% | -9% | 7% | ? | . | -1% | .
CCOc1ccc(NC(=S)Nc2ccc(OC)cc2)cc1 | -4% | 35%[activator] | 1% | 0% | 12%[46.1 µM] | . | 0% | .

Rewritten as labelled records: part of the list above.
> O=C(O)c1cccc(N2C(=O)CSC2=S)c1
- LASV entry inh: 13%[46.1 µM]
- StopGo reporter: ?
- RE007 growth inh: 20%
- NS1 function inh: 1%
- MARV entry inh: ?
- Cruzain Triton: .
- SARS PLP yeast: -1%
- Cruzain inh noDet: .

> COc1cccc(C(=O)/C=C2\NCCc3cc(OC)c(OC)cc32)c1
- LASV entry inh: -27%
- StopGo reporter: 0%
- RE007 growth inh: -9%
- NS1 function inh: 7%
- MARV entry inh: ?
- Cruzain Triton: .
- SARS PLP yeast: -1%
- Cruzain inh noDet: .

> CCOC(=O)CNC(=O)CSc1nccn1Cc1ccco1
- LASV entry inh: 15%
- StopGo reporter: -9%
- RE007 growth inh: 18%
- NS1 function inh: 3%
- MARV entry inh: -20%
- Cruzain Triton: .
- SARS PLP yeast: 0%
- Cruzain inh noDet: .

Next compounds
Molecule | LASV entry inh | StopGo reporter | RE007 growth inh | NS1 function inh | MARV entry inh | Cruzain Triton | SARS PLP yeast | Cruzain inh noDet
CC(C)CC(=O)Nc1ccccc1Oc1ccccc1 | -1% | 2% | 12% | 7% | 19% | 0.9% | 6% | 3%
COC(=O)CNC(=O)Cn1c(=O)n(Cc2ccc(F)cc2)c(=O)c2sccc21 | . | -21% | 29% | ? | . | . | 5% | .
Cc1ccc(NC(=O)/C(C#N)=C(\N)C(Cl)(Cl)Cl)nc1 | . | -67% | -9% | . | -20%[46.1 µM] | . | -5% | .
Cc1ccc(C2CC(c3ccco3)=NN2S(C)(=O)=O)cc1 (stereo not drawn) | ? | 89%[activator] | 10% | 7% | -3% | -3.0% | -2% | -4%
Cc1cc(C)n2nc(SCc3ccccc3F)nc2n1 | 21% | 10% | 3% | -8% | 16%[46.1 µM] | . | -2% | .
Cn1nc(C(=O)NCc2ccccc2CN2CCCC2)c2ccccc2c1=O | -14% | -21% | -23% | . | ? | . | 0% | .
Cn1c(=O)c(-c2ccccc2)cc2ccccc21 | 12%[46.1 µM] | 27% | -12% | . | 1%[46.1 µM] | . | . | .
CC(C)NC(=O)CSc1nc(N)c(-c2ccccc2)c(=O)[nH]1 | 15% | -2% | 0% | . | 14%[46.1 µM] | . | 1% | .
CCOc1ccc(N2CC(C(=O)N3CCc4ccccc4C3)CC2=O)cc1 (stereo not drawn) | -2% | 2% | -13% | -5% | 10% | -4.7% | -3% | -3%
COc1ccccc1NC(=O)Cn1c(=O)n(Cc2ccco2)c(=O)c2cccnc21 | . | 7% | . | . | 0%[46.1 µM] | -7.2% | . | -9%
O=C(Cc1ccccc1)Nc1c(C(=O)c2ccccc2)oc2ccccc12 | -2%[46.1 µM] | 6% | . | . | . | -5.9% | . | -2%
O=C(Nc1cccc(C(F)(F)F)c1)C(Sc1n[nH]c(=O)[nH]c1=O)c1ccccc1 (stereo not drawn) | -12% | 62%[activator] | 2% | 2% | -28%[46.1 µM] | . | 2% | .
CC(CC(=O)Nc1ccccc1C(F)(F)F)c1ccccc1 (stereo not drawn) | 12% | -23% | -5% | -1% | ? | 0.9% | 5% | 1%
Cc1ccc(NC(=O)CSCC(=O)N(C)CCOc2ccc(Cl)cc2)cc1 | -16% | -6% | 38% | . | 2% | . | -10% | .
Cc1nc2c(C)cccc2cc1C(=O)N/N=C/c1cccnc1 | 14% | -6% | -5% | 6% | -12% | -1.2% | 27% | 9%
COC(=O)c1ccc(NC(=S)NCCc2ccccc2)cc1 | -3% | 25% | 3% | 16% | -23% | -14% | ? | -2%
Cn1cnc([N+](=O)[O-])c1Sc1nc2ccccc2[nH]1 | ? | ? | 2% | 8% | -16% | . | 0% | .
CSCC[C@H](NC(=O)[C@@H]1Cc2ccccc2CN1)C(=O)NC[C@H]1CC[C@H](C(=O)O)CC1 | . | -15% | 18% | 2% | . | . | -2% | .
CC1CCCN(CCC(=O)c2ccccc2)C1 (stereo not drawn) | 16%[46.1 µM] | -17% | 6% | . | 21%[46.1 µM] | . | . | .
CCN(CC)S(=O)(=O)c1cc(NC(=O)Cc2ccsc2)ccc1C | 0.46µM* | 0% | 18% | -4% | -17% | . | 1% | .
COc1ccc(CNc2nc3ccccc3n2CCN2CCCCC2)cc1 | -9%[46.1 µM] | -6% | -25% | 6% | ? | . | 0% | .
CCOc1ccc(-n2c(SCC(=O)NCc3ccccc3)nc3n[nH]c(C)c3c2=N)cc1 | -15%[46.1 µM] | -24% | . | . | . | 1.3% | . | 6%
CCOCc1c(C(=O)Nc2cc(OCC)c(N3CCOCC3)cc2OCC)oc2ccccc12 | -7% | ? | 2% | . | 2%[46.1 µM] | . | -5% | .
COc1cc(CN2CCCC(C)C2)cc([N+](=O)[O-])c1O (stereo not drawn) | 18% | 5% | -14% | 7% | 2% | -0.4% | -8% | -1%
O=[N+]([O-])c1ccc(C2CCCC/C2=N\OCc2cccc(F)c2)c([N+](=O)[O-])c1 (stereo not drawn) | -13% | -17% | 5% | 9% | ? | 2.0% | -17% | -9%
Fc1ccc(CO/N=C/C2=C(Cl)c3ccccc3CC2)cc1 | ? | -2% | -13% | 4% | 17%[46.1 µM] | -4.7% | -3% | -7%
O=C1Nc2cc(Cl)cnc2N2CCCC12 (stereo not drawn) | 1% | -28% | -8% | -33% | -13% | -9.0% | -12% | -21%
Cc1cc(C)n(-c2ccccc2[N+](=O)[O-])n1 | 17%[46.1 µM] | 10% | 24% | 12% | 10%[46.1 µM] | . | 0% | .
CC1CCN(CC(=O)N(C)c2c(N)n(Cc3ccccc3)c(=O)[nH]c2=O)CC1 | 5% | -9% | -12% | . | -2% | . | 2% | .
CCOC(=O)c1nnn2c1nc(N1CCN(c3ccccc3)CC1)c1ccccc12 | 4%[46.1 µM] | -11% | 3% | 2% | 5%[46.1 µM] | . | 0% | .
Cc1ccc2c(c1)c1c(n2CC(O)CNC2CCCC2)CCCC1 (stereo not drawn) | . | -28% | 15% | -3% | . | . | 0% | .
